# Screens from PubChem BioAssay.
# gsp ag = agonists of gsp mutant (McCune-Albright syndrome) | gsp mutant cells, cAMP HTRF, 30 min; control for the full effect not named in the record | Potency, µM (top dose mostly 76.9 µM), without a hit: at the highest dose activation (cAMP increase), actives largely listed as activators | 340,000 compounds, 0.13% hits | AID 624287; active = well fitted activation curve with a large enough effect; inconclusive = small, poorly fitted or top-dose-only effect, or another doubt; inactive = no such curve, though single readings can be large or run the other way; cell line not stated here;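 further: phosphodiesterase inhibitor Ro 20-1724 added with compounds to block cAMP breakdown; potency means the concentration at half of the fitted maximal effect; nearly all actives have a fitted effect of over 60% in size; about a fifth of the inactives were tested at one dose only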
#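 Cells stably selected in G418 were plated at 2000/well, grown 16-24 hr, then given compounds in DMSO with the PDE inhibitor […] (300 uM solution added) for 30 min at 37C; cAMP was read by HTRF.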
# gsp antag = antagonists of gsp mutant (McCune-Albright syndrome). Potency, µM (doses to about 76.9 µM), inactives show top-dose activity change, negative = inhibition, most hits filed as inhibitors. 340,000 compounds, 0.4% hits. gsp-mutant cells, cAMP HTRF, 30 min; control for the full effect not named in the record; active = falling curve of any shape with a large fitted effect; inconclusive = falling curve, mostly with a smaller effect; inactive = flat or rising curve; cell line not stated here;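 further: intracellular cAMP measured with PDE inhibitor Ro 20-1724 present during compound exposure; potency means the concentration at half of the fitted maximal effect; on the % scale 0 is the no-effect control and ±100 the full control effect; nearly all actives have a fitted effect of over 65% in size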
#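 Measurement of cellular cAMP by homogeneous time-resolved fluorescence following a 30 min compound exposure at 37C. The PDE inhibitor […] was present throughout; the assay buffer was DPBS with 0.05% BSA and 0.005% Tween 20.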
# PINK1 modulator = modulators of PINK1 expression; PINK1 immunofluorescence, high-content cytometry, 24 h; Potency, µM (doses to about 76.6 µM), for the others: at the top dose activation (PINK1 increase), usual class: activators; 410,000 compounds, 0.2% hits; active = well fitted activation curve with a large enough effect; inconclusive = small, poorly fitted or top-dose-only effect; inactive = flat fitted curve, though single readings scatter; cell line not stated here;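 further: potency means the concentration at half of the fitted maximal effect; % of control where 0% means no effect; nearly all actives have a fitted effect of over 65% in size; a mitochondrial uncoupler was the plate control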
#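 Compound titrations (5 concentrations, 24 h) on a stable cell line; DMSO and CCCP controls. Endpoint: fixed-cell PINK1 immunofluorescence with mitochondrial, cell and nuclear markers, scanned by microplate cytometer.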
# ClpP mod = qHTS Assay for Activators of ClpP | AID 651965, 2013 | 340,000 compounds, 1.9% hits | Potency, µM (doses to about 57.5 µM), for the others: at the highest dose activity change, negative = active | ATP-dependent Clp protease proteolytic subunit (Bacillus subtilis (strain 168)), P80244 | purified B. subtilis ClpP, FRET peptide cleavage, 20 min; active = well fitted falling curve with a large enough effect; inconclusive = small, poorly fitted or top-dose-only effect; inactive = no such curve, though single readings can be large or run the other way; further: potency means the concentration at half of the fitted maximal effect; the source files actives as falling curves though it sought activators and does not explain the sign; nearly all actives have a fitted effect of over 65% in size; many hits overshoot -100%
# Target sequence (P80244 whole entry, looked up): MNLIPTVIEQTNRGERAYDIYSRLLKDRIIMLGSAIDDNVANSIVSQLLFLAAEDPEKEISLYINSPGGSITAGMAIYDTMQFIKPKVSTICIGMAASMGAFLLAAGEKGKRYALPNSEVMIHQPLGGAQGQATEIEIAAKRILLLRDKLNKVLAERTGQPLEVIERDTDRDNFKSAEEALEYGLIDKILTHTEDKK
#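 FRET quenching reversal measured ClpP activation: 10 microg/mL B. subtilis ClpP at pH 8 with the FRET-FV decapeptide, read at 430 nm after 320 nm excitation. The 20-min minus 0-min signal was scaled between DMSO/no-enzyme wells and ADEP (5.8 microM final).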
# Menin-MLL FL inh = inhibitors of human menin-MLL interaction, wild-type MLL peptide | Fluorescence polarization, fluorescein-MLL peptide displacement from menin | FP activity change, % at 61.4 µM | 290,000 tested, under 10 active | AID 1766; inconclusive = falling polarisation curve, or a change in total fluorescence; inactive = total fluorescence flat and polarisation flat or rising; no compound was filed as active; the % refers to the polarisation; negative = inhibition;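 further: % of control where 0% means no effect; inhibitors lower the polarisation; unlabelled MLL peptide was the positive control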
# D2 agonist = agonists of human D2 dopamine receptor (beta-arrestin) | P14416 | DiscoveRx PathHunter D2 beta-arrestin, luminescence, 90 min; 100% = 57 uM dopamine signal | activation, % (concentration not given with the values) | 360,000 compounds, 0.084% hits; in the data active = activation above about 40%; inconclusive = about 15% to 40%; inactive = below about 15%; further: the text of the record calls up to 30% inactive
# Target sequence (P14416 whole entry, looked up): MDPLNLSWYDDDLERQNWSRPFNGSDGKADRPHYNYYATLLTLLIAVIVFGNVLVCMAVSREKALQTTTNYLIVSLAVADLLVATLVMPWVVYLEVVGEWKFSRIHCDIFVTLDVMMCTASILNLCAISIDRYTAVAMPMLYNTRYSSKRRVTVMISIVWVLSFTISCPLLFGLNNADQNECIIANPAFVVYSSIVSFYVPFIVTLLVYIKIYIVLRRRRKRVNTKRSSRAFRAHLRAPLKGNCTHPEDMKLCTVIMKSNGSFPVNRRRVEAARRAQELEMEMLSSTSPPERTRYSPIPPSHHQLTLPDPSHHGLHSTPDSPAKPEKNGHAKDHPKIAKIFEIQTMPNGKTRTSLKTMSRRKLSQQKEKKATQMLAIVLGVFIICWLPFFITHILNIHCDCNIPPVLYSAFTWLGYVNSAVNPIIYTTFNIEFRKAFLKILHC
#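 DiscoveRx PathHunter D2 beta-arrestin cells (2,100/well) attached overnight, then compound-stimulated 90 min at 37 C in HBSS/10 mM HEPES/0.1% Tween-20 buffer; beta-galactosidase complementation read by luminescence after 1 h at ambient temperature. Dopamine 57 uM final (EC100) as control.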
# Sfp inh = Sfp phosphopantetheinyl transferase inhibition; Q9F4F7; Biochemical Sfp PPTase activity, qHTS; Potency, µM, without a hit: max response, negative = inhibition, most hits filed as inhibitors; 310,000 compounds, 3.5% hits; AID 1490; active means well fitted inhibition curve with a large enough effect; inconclusive means small, poorly fitted or top-dose-only effect, or another doubt; inactive means no such curve, though single readings can be large or run the other way;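 further: the enzyme is Sfp with the accession as filed and its product quenches rhodamine fluorescence; potency means the concentration at half of the fitted maximal effect; 0% = enzyme reaction without inhibitor and -100% = no enzyme wells; top concentration of the series not given in the record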
#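 Sfp 15 nM + cpd, 15 min RT; start w/ rhodamine-CoA 5 uM, BHQ-2-YbbR 12.5 uM (final); 50 mM Hepes pH 7.6, 10 mM MgCl2, 0.01% NP-40, 0.01% BSA; read 525/598 nm at 0 and 30 min.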
# * marks the source's active call; other numbers are inactive results; ? = inconclusive; · = not tested or not shown; & = joins results of further samples; [ ] = dose if it differs, or a comment.
SMILES,gsp ag,gsp antag,PINK1 modulator,ClpP mod,Menin-MLL FL inh,D2 agonist,Sfp inh
CCC(C)NC(=O)c1ccc(CSc2nc3ccncc3n2Cc2ccc(F)cc2)cc1 (stereo unspecified),?,-7%,1.3%,-4.7%,-4.1,5.3,1%
Cc1cc(NC(=O)CN2CCN(S(=O)(=O)c3ccc(Cl)cc3)CC2)no1,-35%,-3%,2.9%[38.3 µM],-0.7%,0.8,1.8,17%
Cc1ccc(NC(=O)CN(C)C(=O)c2ccc(NS(=O)(=O)c3cccc([N+](=O)[O-])c3)cc2)cc1,?,-10%,-0.1%,0.1%,·,-3.4,·
Cc1ccc(NC(=O)C(C)N2C(=O)c3ccccc3C2=O)cc1S(=O)(=O)N1CCOCC1 (stereo unspecified),-87%[inhibitor],8%,1.4%,-0.9%,-1.0,-2.5,0%
COc1ccc(C(=O)NCC(=O)NCC(=O)OCc2ccc(Cl)cc2)cc1,7%,6%,2.6%,-1.7%,1.9,-2.3,5%
Cc1cc(NC(=O)c2ccco2)ccc1NC(=O)Cc1cccs1,?,-9%,1.5%,?,-1.0,-0.4,2%
CCOc1ccccc1NC(=O)Nc1ccc(Br)cn1,17%,17%,-0.7%,-0.5%,-2.2,-4.8,14%
CN1C(=O)N(C)C2C1NC(=O)N2C (stereo unspecified),?,7%,-0.1%,-0.5%,-5.8,0.3,23%
C/C(=N\NC(=O)Cc1ccc([N+](=O)[O-])cc1)c1cccnc1,2%[15.4 µM],15%,2.2%,-3.1%,-6.1,-0.1,-12%
COc1ccccc1N(CC(=O)N1CCN(c2ccc(F)cc2)CC1)S(=O)(=O)c1ccc(C)cc1,-5%,-12%,1.9%,0.6%,1.0,-4.5,0%
Cc1ccc(Cn2c(C)c(C(=O)NCC(C)C)sc2=O)cc1,·,·,2.1%,2.4%,·,14,·
CC(C)NC(=S)N1CCn2c(nc3ccccc32)C1,8%[15.4 µM],4%,2.8%,0.9%,8.6,-1.3,18%
CC(C)(C)N(Cc1ccccc1)C(=O)COC(=O)CCN1C(=O)C2CC=CCC2C1=O (stereo unspecified),0%,-3%,2.5%,-0.4%,·,-1.4,·
CCSc1nnc(NC(=O)c2cc(-c3ccc(C)c(C)c3O)n[nH]2)s1,-73%[inhibitor],3%,2.5%,-6.7%,-1.4,-2.2,6%
CC(C)C(=O)Nc1ccc(N2CCN(S(C)(=O)=O)CC2)cc1,?,-20%,-0.9%,2.7%,4.9,-1.7,12%
O=C(OCCCN=C1NS(=O)(=O)c2ccccc21)c1cccs1,-7%,2%,0.4%,·,0.0,0.9,18%
Cc1nnc(SC2CC(=O)N(c3ccccc3)C2=O)s1 (stereo unspecified),21%,-4%,1.6%,-0.7%,2.1,1.2,35µM*
O=C(CCCCCBr)N1CCC(CC2CC(c3ccc(Cl)cc3)=NO2)(C(=O)NCC2CCCCC2)CC1 (stereo unspecified),·,-16%,3.8%,0.6%,3.6,2.4,3%
COc1cccc(C2=CC(=O)C[C@H](c3ccc(F)cc3)C2)c1,-37%[inhibitor],-10%,0.9%,-4.4%,·,-2.8,·
CCCNC(=O)C(Cc1ccccc1F)NC(=O)c1ccccn1 (stereo unspecified),-2%,9%,-0.2%,-4.3%,·,0.3,·
CCOC(=O)Cc1cc(OC)c(OC)cc1Cc1cc(OC)c(OC)cc1CC(=O)OCC,10%,-8%,21%[38.3 µM],-0.9%,3.4,2.5,5%
CCOc1ccc(N2CC(C(=O)NCCN3C(=O)S/C(=C\c4cccnc4)C3=O)CC2=O)cc1 (stereo unspecified),28%,-6%,0.9%,·,-0.2,-1.0,?
CN(c1ccccc1)S(=O)(=O)c1ccc2[nH]c(=O)[nH]c2c1,-1%,-3%,1.5%,0.6%,-0.4,-2.0,0%
Cn1c(-c2cccc3ccccc23)n[nH]c1=S,-18%,-4%,1.0%,-1.1%,5.5,-0.8,-4%
O=C(O)c1cc2ccccc2c2cc(Br)ccc12,?,6%,1.0%,-0.3%,1.5,-4.7,23%
FC(F)(F)c1ccccc1-c1cc(NCc2ccccc2)ncn1,·,·,1.4%,·,-1.5,·,17%
Oc1ccc2c(c1)OC(c1ccc(O)c(O)c1)C(O)C2 (stereo unspecified),·,·,2.0%,·,3.0,·,?
O=C(COc1ncnc2ccc(Br)cc12)N1CCOCC1,-24%,0%,-1.0%,-0.6%,1.4,-0.4,8%
CN(C)CC1CCCCC1OC(=O)c1ccc(S(=O)(=O)N(C)c2ccccc2)cc1 (stereo unspecified),1%,10%,1.1%,·,1.4,0.9,13%
Cc1ccc(-n2c(N)c(C#N)c(-c3ccccc3)c(C#N)c2=O)cc1,?,13%,6.8%,21%,-1.5,-3.9,24%
CC(C)OCCCNC(=O)C(C)Oc1ccccc1 (stereo unspecified),-34%[inhibitor],-16%,?,0.2%,-2.5,0.3,25%
COc1ccccc1NC(=O)CSc1nc2ccccc2n1C(C)=O,6%,?,-5.1%[38.3 µM],-0.8%,4.3,2.7,-9%
CCN(CCCNC(=O)CCCOc1cc(=O)n(C)c2ccccc12)Cc1ccccc1,-2%,3%,1.2%,-5.3%,1.7,-3.0,7%
CN1CCN(C(=O)c2ccc(CSc3ccc(Cl)cc3)cc2)CC1,6%,9%,0.4%,?,4.6,3.0,2%
O=C(c1ccc2nc(Cc3cccc(Cl)c3)oc2c1)N1CCC(CO)CC1,?,7%,-0.5%,-0.7%,1.0,3.0,7%
CC(=O)Nc1cc(-c2ccccc2F)cn2c(-c3cccc(C(F)(F)F)c3)cnc12,·,·,0.1%,?,·,4.6,·
COc1ccc(CNC(C)C2COc3ccccc3O2)c(OC)c1 (stereo unspecified),28%,6%,3.3%,28µM*,-2.1,-1.1,-20%
O=C(NC(=S)Nc1cccc2cc(O)ccc12)c1ccco1,28%,-3%,0.3%,6.5%,-3.4,0.5,-18%
COc1ccc(-c2csc(NC(=O)CSc3nc(C)cs3)n2)cc1,16%,-19%,2.5%,-0.4%,·,-0.8,·
Clc1ccc(COc2ccccn2)c(Cl)c1,2%,3%,1.6%[38.3 µM],-5.0%,2.2,-2.8,14%
Cc1cc(C)n(CC(=O)N2CCCC(C(=O)c3cccc(OC(C)C)c3)C2)n1 (stereo unspecified),6%[15.4 µM],-6%,0.1%,·,2.5,-4.9,17%
CCCc1c(-c2ccc(O)cc2)nn(-c2ccc(O)cc2)c1-c1ccc(O)cc1,·,-24%,1.7%,-17%,-3.5&2.8&-8.4,14,-1%&-2%
COc1ccc(N2CC(C(=O)N[C@@H](C)C(=O)NC3CCCCC3)CC2=O)cc1 (stereo partly specified),-3%,7%,2.9%,-2.5%,1.0,-2.7,6%
O=[N+]([O-])c1cc([N+](=O)[O-])c(Oc2cc(F)cc(F)c2F)cc1NN1CCCCC1,-36%[inhibitor],11µM*,5.7%,1.6%,-4.6,-0.9,-2%
Cc1ccc2[nH]c3c(=O)n(Cc4ccccn4)cnc3c2c1,23%,11%,-0.7%,32µM*,3.6,-0.6,2%
Cc1ccc(NC(=O)COC(=O)CC2CCCC2)cc1F,?,11%,10%,·,·,-2.4,·
Cc1cc2ccccc2c(=O)n1CC(=O)NCC(=O)N1CCN(c2ccccc2)CC1,?,3%,0.8%,-26%,-1.3,-3.7,50µM*
Cc1ccc(C(=O)NCC(=O)OCC(=O)N2CCCc3ccccc32)cc1,-6%,5%,0.1%,0.6%,0.8,-1.6,3%
Cc1cc(NC(=O)CCCN2C(=O)/C(=C/c3ccccc3Cl)SC2=S)no1,7%,3%,?,-2.7%,·,-0.5,9%
CCN(CC)S(=O)(=O)c1ccc(C)c(N=C=S)c1,5%[15.4 µM],5%,0.8%,·,0.0,-5.7,23%
CCOC(=O)C1(Cc2ccccc2C)CCCN(C(=O)c2ccc3nccnc3c2)C1 (stereo unspecified),8%[15.4 µM],-2%,1.9%,-2.6%,-1.5,2.7,0%
O=C(Nc1ccc(Oc2cccnc2)cc1)c1ccc([N+](=O)[O-])cc1,-11%[15.4 µM],-4%,2.2%,·,-3.1,0.9,3%
Cc1cccc(N2N=C(C(=O)N3CC(=O)Nc4ccccc43)CCC2=O)c1,-30%[inhibitor],-3%,-1.2%,-3.4%,2.4,8.0,-6%
Cc1cc(Cn2nnnc2-c2ccncc2)cc(C)c1O,5%[15.4 µM],6%,3.6%,·,4.2,4.5,11%
Nc1nc2ccccc2n1C(=O)c1ccc(F)cc1,10%[15.4 µM],0%,0.7%,·,3.9,-4.8,15%
O=C(CCc1ccccc1)Nc1ccccc1,-13%[15.4 µM],13%,-0.4%,·,0.0,-5.1,-12%
CC1(C(=O)N/N=C/c2ccc([N+](=O)[O-])o2)CC1(Br)Br (stereo unspecified),-23%,19%,?,-4.6%,3.9,7.4,10%
COCCNC(=O)C(C)Oc1ccc(Cl)cc1Cl (stereo unspecified),-16%,-2%,1.4%,-0.7%,6.3,-1.1,-2%
Cc1ccc(/C=C/C(=O)Nc2cc(S(=O)(=O)N3CCOCC3)ccc2N2CCOCC2)cc1,-19%,-10%,3.7%,0.6%,·,1.3,·
COC(=O)c1cn(C(=O)c2ccc(C)cc2)c2ccccc12,13%,75%[activator],12%,-2.0%,2.5,-7.3,?
O=C(NC1CCCCC1)c1ccc(N2CCCC2=O)cc1,3%,5%,1.6%,-1.3%,-1.7,0.6,15%
CCN(CC)c1ccc(NC(=O)Nc2cccc(C(C)=O)c2)cc1,-2%,-27%,-1.8%[38.3 µM],-19%,2.1,-3.3,-26%
CCOc1ccc(NC(=O)c2cc3ccccc3cc2OC)cc1,-5%[15.4 µM],-3%,10%,-0.1%,-1.2,-4.5,-4%

# This is a random part of the collection; overall some 5.1% were active at least once.
